NPYLR7 agonist: agonists of mosquito NPYLR7 receptor, primary screen, cell-based, Aedes aegypti, calcium fluorescence, mosquito biting behavior. 270,000 compounds, 0.15% hits. HEK293T NPYLR7/Galpha15, GCaMP6s calcium fluorescence. AID 1259423, 2018. activation, % at 10 µM; in the data active means activation above about 40%;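 further: 0% = vehicle and 100% = reference agonist at the receptor; some compounds past the cut are filed as inactive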
NPYLR7 agonist max-min: second read-out of NPYLR7 agonist, no call of its own (marks repeat the call); activation, %; measured here: Max-Min RFU normalised activation; some inactives read as strong as hits;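 span of the calcium signal over five minutes; 0% = vehicle and 100% = native peptide agonist; compound fluorescence can raise it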
Starred values were filed as active, the others as inactive. Only part of the results is shown, so the mix of outcomes need not match the whole.

Sequence of screens: NPYLR7 agonist, NPYLR7 agonist max-min
Cc1ccc(Nc2nc(NCCN(C)C)nc3nccnc23)cc1C
→ 3, 6
O=C(O)[C@H]1C[C@H](C(=O)Nc2ccc(F)cc2)CN(Cc2cc3ccccc3o2)C1
→ 6, 13
CCOc1c(Br)cc(/C=C/c2ncc(C(=O)O)s2)cc1OC
→ 13, 10
CCC(=O)c1ccc(OCC(=O)c2ccc3c(c2)OCCO3)cc1
→ -8, -11
C=CCOC(=O)c1sc(NC(=O)CN2CCCC(C)C2)c(C(=O)OCC)c1C (stereo unspecified)
→ -5, -12
Cc1ccc(C)c(C2c3cccn3CCCN2Cc2ccc(F)c(Cl)c2)c1 (stereo unspecified)
→ -9, 7
Cc1nc(NCCNC(=O)Nc2ccc3c(c2)OCCO3)cc(N2CCCC2)n1
→ 1, -3
O=C(NCCc1ccc(Cl)cc1)c1ccc(N2CCOC2=O)cc1
→ 0, -1
O=S(=O)(c1ccc(NN=C2CCCCCCC2)nc1)N1CCCCC1
→ 2, 0
O=C(NCc1cccs1)C(=O)NCC1CCCO1 (stereo unspecified)
→ 0, -2
CN(Cc1cc(C2CC2)n[nH]1)C(=O)CCc1cn2ccccc2n1
→ 3, -1
Cc1cc(C(=O)OCc2nnc(-c3ccco3)o2)c(C)n1C1CC1
→ 2, 1
Cc1ccoc1C1=NNC(=CN(C)CC2CCN(CC(C)O)CC2)O1 (stereo unspecified)
→ -5, 5
Cc1ncc(C[n+]2csc(CCO)c2C)c(N)n1
→ -5, -10
CCN(C(=O)CSc1nncn1-c1ccccc1OC)C1CCCCC1
→ 3, 1
Cc1c(C(=O)NC2CC2)cc(-c2ccc(Cl)cc2)n1-c1cccc(F)c1
→ -14, -8
Cc1nc(S(=O)(=O)N2CCC3(CCCN(C)C3=O)C2)cn1C (stereo unspecified)
→ -6, -5
COCCN(CC(=O)N(CCc1ccc(OC)c(OC)c1)Cc1ccco1)C(=O)c1ccc(-c2ccccc2)cc1
→ 5, 4
Cc1ccc(C(O)=C2C(=O)C(=O)N(CCN3CCOCC3)C2c2cccnc2)cc1 (stereo unspecified)
→ 1, 0
O=C1OCCN1CC(=O)N(CC#Cc1ccccc1)C1CCCC1
→ -4, -4

Given as labelled records: part of the list above
> Cc1nc(S(=O)(=O)N2CCC3(CCCN(C)C3=O)C2)cn1C (stereo unspecified)
- NPYLR7 agonist = -6
- NPYLR7 agonist max-min = -5

> COCCN(CC(=O)N(CCc1ccc(OC)c(OC)c1)Cc1ccco1)C(=O)c1ccc(-c2ccccc2)cc1
- NPYLR7 agonist = 5
- NPYLR7 agonist max-min = 4

> Cc1ccc(C(O)=C2C(=O)C(=O)N(CCN3CCOCC3)C2c2cccnc2)cc1 (stereo unspecified)
- NPYLR7 agonist = 1
- NPYLR7 agonist max-min = 0

Remaining list, next part
Sequence of screens: NPYLR7 agonist, NPYLR7 agonist max-min
COc1ccc(S(=O)(=O)NC2CCCCCC2)cc1OC
→ 1, 8
CCOC(=O)c1ccc(NC(=O)N(CCC(C)C)C(CC)c2nc3ccccc3c(=O)n2-c2ccccc2OC)cc1 (stereo unspecified)
→ -10, -8
COc1ccccc1-n1cc(-c2c(-c3ccccc3)ncn2[C@H](C)C(N)=O)cn1
→ 1, -1
CCOc1ccc(CN2CCN(Cc3ccc4cc(F)ccc4n3)CC2CCO)cc1 (stereo unspecified)
→ 6, 1
CC1(C(=O)NS(C)(=O)=O)CCN1C(=O)CCc1cccs1 (stereo unspecified)
→ -1, -2
CNC(=O)C(C#N)C(=O)CCc1cccc(OC2CCCC2)c1 (stereo unspecified)
→ -7, -12
CC1CC(O)(C#N)C(C)CN1C (stereo unspecified)
→ 1, 3
O=C(NCc1nnnn1-c1ccc(F)c(F)c1)c1ccc([N+](=O)[O-])cc1
→ 0, 0
Cc1c(NC(=O)C2CCCO2)cccc1C(=O)Nc1cnc2n1CCCC2 (stereo unspecified)
→ 10, -7
Cc1ccccc1CSc1nc2c(c(=O)n1C)SCC2
→ -2, -2
O=C(CN1C(=O)C2(OCCO2)c2cc(Br)ccc21)c1cccc2ccccc12
→ -4, -7
Cc1cc(Br)ccc1NC(=O)c1cnn(C)c1C(F)(F)F
→ 4, 2
COCc1c(C(=O)NC2CCN3CCCCC23)sc2cccc(F)c12 (stereo unspecified)
→ 3, 0
O=C(Nc1cccc(C(F)(F)F)c1)N1CCc2nc(Cc3cccc(F)c3)nc(N3CCOCC3)c2C1
→ -1, 3
CC1(C)CC(=O)C(CC(=O)c2ccccc2)C(=O)C1
→ 0, 2
CC(=NNc1ncnc2sc3c(c12)CCC3)c1cc2ccccc2o1
→ 2, 4
O=C(c1cc(=O)c2ccccc2o1)N1CCN(c2ncnc3c2nnn3-c2ccc(Cl)cc2)CC1
→ -2, -7
CCCCOCC(=O)N1CCC(c2[nH]ncc2CC)CC1
→ 1, -10
CCCCn1c(C2CC(=O)N(c3ccccc3)C2)nc2ccccc21 (stereo unspecified)
→ 5, 9
O=C(O)Cc1cc(-c2ccc3c(c2)OCCO3)on1
→ -5, -7
COCCn1c(SCCO)nc2c([nH]c3ccccc32)c1=O
→ -1, -2
Cc1ccc(NC(=O)COC(=O)Cn2c(C)csc2=O)cc1
→ 4, 3
Cc1cccc(C2SCC(=O)N(CC(=O)NCc3ccccn3)c3c2c(-c2ccccc2)nn3-c2ccccc2Cl)c1 (stereo unspecified)
→ 19, 3
O=C(Cc1nc2ccccc2c(=O)[nH]1)NCc1ccccc1
→ 2, -4
COc1ccc(CC(=O)Nc2nnc(SCC(=O)Nc3ccccc3C(F)(F)F)s2)cc1
→ -8, -7
CC(C)c1ccccc1NC(=O)N1CCN(c2ncccc2C(=O)NCc2ccc3c(c2)OCO3)CC1
→ 8, -4
CCC(NC(=O)c1cc(COc2cccc(F)c2)[nH]n1)c1ccccn1 (stereo unspecified)
→ 24, 8
CCc1ccc(N2C(=O)c3ccccc3NC2c2ccc(OCC(N)=O)cc2)cc1 (stereo unspecified)
→ 1, -3
Oc1ccc(N=Nc2ccccc2F)c2cccnc12
→ 2, -2
COCCCNC(=O)c1cc(NC(=O)Nc2ccc([N+](=O)[O-])cc2)ccc1N1CCCC1
→ -3, 5
CN(C)CCCN(C(=O)c1cccc(Br)c1)c1nc2c(F)cc(F)cc2s1
→ 3, 1
COc1ccc(C(=O)NC2CCN(c3ccccc3C(=O)NCCc3ccccc3OC)CC2)cc1
→ 0, 9
COc1cc2c(cc1OC)C(c1ccccc1)N(C(=O)Nc1ccc(F)cc1F)CC2 (stereo unspecified)
→ 2, -5
CCOC(=O)c1ccc(Nc2nnc(Cc3ccc(C)cc3)c(=O)[nH]2)cc1
→ 9, 3
Cc1cc(C(=O)N2[C@@H](c3ccccc3)[C@@H](C(=O)O)C[C@]23CCCCNC3=O)c(C)o1
→ 0, 10
CCOc1ccc(N2C(=O)NC(=O)/C(=C\c3ccc(O)c(OCC)c3)C2=O)cc1
→ -3, -8
CCSc1ncc(CN2CCC3(CCCN(Cc4cccc(OC)c4OC)C3)C2)cn1 (stereo unspecified)
→ 0, -2
CC1(C(=O)Nc2ccc3c(c2)OCO3)CCN1Cc1c(F)cccc1F (stereo unspecified)
→ -3, -4
O=C(NCCn1nc(-c2cccs2)ccc1=O)C1CCCC1
→ 0, -3
Cc1ccccc1Cn1c(C(=O)N2CCN(C(=O)Nc3ccc(C#N)cc3)C(C)C2)cc2ccsc21 (stereo unspecified)
→ -2, 0
CC(C)C(NC(=O)Cn1ncc2ccccc2c1=O)c1ccc(C(C)(C)C)cc1 (stereo unspecified)
→ 4, 1
O=C(NC(c1ccccc1)c1ccc(Cl)cc1)c1ccc(CSc2nnc3ccccn23)cc1 (stereo unspecified)
→ 1, -2
N#Cc1cccc(OC2CC3CCC(C2)N3C(=O)c2ccc(CN(Cc3ccccc3)Cc3ccccc3)cc2)c1 (stereo unspecified)
→ 8, -4
CC(=Nn1c(C)nc2sc3c(c2c1=O)CCCC3)N(C)C
→ -4, -5
Cc1cc(C)n(-c2nnc(C)n2NS(=O)(=O)c2ccc(F)cc2)n1
→ -4, -6
O=C1NC2(CCN(C(=O)c3cccc([N+](=O)[O-])c3)CC2)Nc2cccc(Cl)c21
→ 0, 3
CCC(NC(=O)C(C)(C)c1ccccc1)c1ccnn1C (stereo unspecified)
→ -1, -2
CCC(C)CN(CC(=O)N1CCc2sccc2C1COc1ccc(C(C)C)cc1)C(=O)c1cccc(OC)c1 (stereo unspecified)
→ -3, 4
COc1ccc(CN2CCn3nc(C(=O)NCCOc4ccccc4)cc3C2=O)cc1
→ 17, 3
CC(C(=O)NC1CCOc2ccccc21)N1CCc2sccc2C1 (stereo unspecified)
→ -1, -2

Other compounds
Sequence of screens: NPYLR7 agonist, NPYLR7 agonist max-min
Cc1ccc2nc(-c3ccccc3C)c(NC(=O)C3CC3)n2c1
→ -4, 5
CCNc1nc2c(c(=O)[nH]c(=O)n2C)n1CCOC
→ 19, 8
COc1ccc(N2CCn3c(SCc4ccccc4C)nnc32)cc1
→ 16, 13
Cc1ccccc1C(=O)N=Nc1c(O)[nH]c2ccc(Br)cc12
→ -6, -6
CCCC[P+](c1ccccc1)(c1ccccc1)c1ccccn1
→ -1, -2
Cc1noc(COc2ccccc2OCc2onc(C)c2Cl)c1Cl
→ 0, 0
CC1(C)CC(=O)C2=C(C1)OC(=N)C(C#N)C21C(=O)Nc2ccc(Br)cc21 (stereo unspecified)
→ -3, -3
Oc1ccc(-c2csc(Cc3c(F)cccc3Cl)n2)c(O)c1
→ -3, 20
COCOc1ccc(-c2ncc(OC)nc2NC(=O)c2c(C)noc2C)cc1
→ 8, -4
CCOC(=O)C=CC(=O)OCC(=O)c1ccc(Cl)s1
→ -1, -3
CCOC(=O)c1cc(-c2ccc(C)c(C)c2)n(-c2ccc(C(=O)NC3CCCc4ccccc43)cc2)n1 (stereo unspecified)
→ -3, -10
Cn1cccc1CC(=O)NN=Cc1ccccc1C(F)(F)F
→ 22, 11
O=C(CCc1cccnc1)N1CCC(n2cnc3ccc(F)cc32)CC1
→ 10, 16
Cc1cccnc1C(NC(=O)C1CCN(CCOc2ccc(Br)cc2)CC1)c1ccccc1 (stereo unspecified)
→ 7, -2
O=S(=O)(NCc1ccccc1)c1ccc2c(c1)OCCCO2
→ -7, -10
Cc1ccc(C2=N/C(=C\C=C\c3ccccc3)C(=O)O2)cc1
→ -1, -5
O=c1c2c(n3cnnc3n1C1CCCCC1)-c1ccccc1CC21CCCCC1
→ -2, 4
CCS(=O)(=O)c1cccc(NC(=O)N2CCC(C(C)C)CC2)c1
→ 1, -1
COc1ccc(CN2C(=O)N(CC(C)C)C3(CCN(Cc4cc(F)ccc4F)CC3)C2=O)cc1
→ 12, -2
NC(=O)C1CCN(C(=O)CSc2nnc(N)s2)CC1
→ 3, 3
CCC(C)N(Cc1ccccc1OS(=O)(=O)CC)C(=O)c1ccccc1Cl (stereo unspecified)
→ 22, 24
COCCN(CCOC)C(=O)c1sc2nc(-c3ccccc3)cn2c1C
→ 6, 4
Cc1noc(C)c1Cn1c(C)c(C(=O)NCc2ccc(F)cc2)sc1=O
→ 19, 13
COc1ccc2cc(C(=O)OCC(=O)NCc3ccco3)ccc2c1
→ 22, 14
CCOC(=O)c1[nH]c(C)c(C(C)=O)c1C
→ -2, -4
Cc1ccc(-c2cc(C(=O)N3CCCC(C(=O)c4ccc5c(c4)OCO5)C3)n[nH]2)o1 (stereo unspecified)
→ 14, 5
CCOc1ccc(C(=O)Nc2cccc(C3(C)NC(=O)NC3=O)c2)cn1 (stereo unspecified)
→ 10, 4
C1=CCC(CN2CCCC(c3ccnc(SCCN4CCCC4)n3)C2)CC1 (stereo unspecified)
→ 28, 7
CCC(Cn1ccnc1)NC(=O)c1sc2ccccc2c1C (stereo unspecified)
→ 22, 8
C=CCN(Cc1nc2scc(-c3ccccc3OC)c2c(=O)[nH]1)CC(C)O (stereo unspecified)
→ -3, 0

Structures shown so far that have a COOH group (4):
Sequence of screens: NPYLR7 agonist, NPYLR7 agonist max-min
O=C(O)[C@H]1C[C@H](C(=O)Nc2ccc(F)cc2)CN(Cc2cc3ccccc3o2)C1
→ 6, 13
CCOc1c(Br)cc(/C=C/c2ncc(C(=O)O)s2)cc1OC
→ 13, 10
O=C(O)Cc1cc(-c2ccc3c(c2)OCCO3)on1
→ -5, -7
Cc1cc(C(=O)N2[C@@H](c3ccccc3)[C@@H](C(=O)O)C[C@]23CCCCNC3=O)c(C)o1
→ 0, 10

The list continues:
Sequence of screens: NPYLR7 agonist, NPYLR7 agonist max-min
CCCCN(C)c1c(C)nc2ccc(C(=O)N3CCN(C(C)=O)CC3)cn12
→ -3, -7
CCc1nc2ccc(C(=O)NCCc3ccccn3)cn2c1N(C)CCCc1ccccc1
→ 2, 27
CC(=O)N[C@H]1CCN(c2nc(-c3ccncc3)nc3c2CCN(C(C)=O)C3)C1
→ 4, 2
CC(C)(C)c1ccc(-c2cc(NCCc3cccnc3)n3nccc3n2)cc1
→ 2, 1
COc1cccc(CN(C)CC(=O)c2c[nH]c(C(=O)N3CCCC3)c2)c1
→ -6, -8
O=C(CSc1nnnn1C1CCCC1)NCC1(N2CCOCC2)CCCCC1
→ 1, 6
Cc1ccsc1CN(CC(C)C)C(=O)c1cc2ncc(CCO)cn2n1
→ -4, -14
CCCc1cc(=O)[nH]c(SCC)n1
→ 4, 4
Oc1c(Cl)cc(Cl)cc1CNCCN1CCCC1
→ 5, 3
Cc1ccc(CN2CCN(Cc3cnc(-c4ccccc4C)nc3)CC2CCO)o1 (stereo unspecified)
→ 2, -1
CC1(C)CNC(=O)CN(S(=O)(=O)c2ccc(F)cc2)C1
→ 13, 24
O=C(c1ccc2c(c1)OCO2)N(CCn1cccn1)c1nc2ccccc2s1
→ -8, -8
CN(C)Cc1ccccc1S(=O)c1cccc(O)c1 (stereo unspecified)
→ 2, -1
Cc1ccoc1C(=O)N(C)Cc1ccc2nsnc2c1
→ 1, 1
COc1ccc(CCn2c(SCC(N)=O)nc3scc(-c4cccs4)c3c2=O)cc1OC
→ 1, 1
COc1ccc(-c2cc(C(F)(F)F)n3ncc(C(=O)Nc4cc(Cl)ccc4O)c3n2)cc1
→ -7, -6

Screens deposited in PubChem BioAssay by Fisher Drug Discovery Resource Center.
